Screens (PubChem BioAssay)
YB-1 expression – YB-1 expression inhibition; U2OS, qRT-PCR YB-1 vs CDIP delta delta Cp, 16 h; stronger effect = higher value; zero = DMSO, each unit about twofold; delta delta Cp (YB-1 minus CDIP) (no concentration beside the values); 30,000 compounds, 0.37% hits;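 active means delta delta Cp rounded down to an integer at or above 3, about 3 SD of DMSO wells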;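 further: higher means less YB-1 transcript or more CDIP transcript relative to DMSO; stock transfer was 100 nL into about 100 µL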
PD-1 reverse act – activators reversing PD-1 mediated T-cell inhibition; 29,000 tested, under 10 active; activation, % (concentration not given with the values); primary human CD4 T cells, PD-L1 beads, CellTiter-Glo 96 h; AID 2316;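 active means replicate mean of 50% or more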;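 further: 0% = median vehicle wells and 100% = positive control; 100 nL library stock added to about 50 µL; numbers are from one replicate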
MITF inh – MITF inhibition; TRPM1 promoter luciferase, luminescence, 24 h; inhibition, % (test concentration not listed); 37,000 compounds, 0.28% hits;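 active means most replicates at 85% or more, or half of them and the mean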;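 further: human melanocyte line stably carrying TRPM1 promoter luciferase reporter; 0% = vehicle wells and 100% = a positive control; the first replicate is given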
Shh pathway inh – blocks Sonic Hedgehog signaling | Shh-LIGHT2 Gli-luciferase reporter, 30 h | inhibition, % (no concentration beside the values) | 22,000 compounds, 2.1% hits | AID 2313;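 active means replicate mean of 65% or more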;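 further: pathway switched on by Shh-conditioned medium diluted 1 in 25 in low serum; 100 nL library stock added to about 40 µL; 0% = median of neutral wells and 100% = positive control level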
Active calls of the source: *; nt = no result given. The list is partial. The share of hits here may be higher or lower than overall.

SMILES	YB-1 expression	PD-1 reverse act	MITF inh	Shh pathway inh
COc1ccc(CN(C)C[C@@H]2Oc3ccc(NS(C)(=O)=O)cc3C(=O)N([C@@H](C)CO)C[C@@H]2C)cc1	-0.12	0.8	3	-10
COc1ccc(S(=O)(=O)Nc2ccc3c(c2)C(=O)N([C@H](C)CO)C[C@@H](C)[C@H](CN(C)C(=O)Nc2ccc(C(F)(F)F)cc2)O3)cc1	0.48	0.4	-3	10
CC(C)/C(=N/O)c1ccccc1	0.14	1.3	5	-6
N#Cc1c(-c2ccco2)cc(-c2cccs2)nc1OCc1ccc(F)cc1	-0.15	-1.0	-29	-1
Cc1noc(C)c1S(=O)(=O)N(C)C[C@H]1OCCCC[C@@H](C)Oc2ccc(NS(=O)(=O)c3cn(C)cn3)cc2C(=O)N([C@H](C)CO)C[C@@H]1C	-0.19	nt	-8	-12
COc1ccc(OC)c(NC(=O)COc2cc(C)cc(C)c2C)c1	nt	-2.6	-6	nt
Cc1ccc(-c2nnc3c4ccccc4c(C)nn23)cc1S(=O)(=O)NCC1CCCO1 (configuration not stated)	nt	-1.2	-11	nt
Cc1noc(C)c1S(=O)(=O)N(C)C[C@@H]1Oc2ccc(NC(=O)CCC(F)(F)F)cc2CC(=O)N([C@@H](C)CO)C[C@@H]1C	0.0086	-0.1	-11	-7
COc1ccc(CCNC(=O)C(Sc2ccc(Cl)cc2)c2ccccc2)cc1OC (configuration not stated)	-0.053	-0.5	57	-2
C[C@@H]1CN([C@@H](C)CO)C(=O)c2cc(NC(=O)Nc3ccccc3)ccc2O[C@@H]1CN(C)Cc1ccc(-c2ccccc2)cc1	0.63	-4.9	-3	nt
COc1ccc(NC(=O)Nc2cccc3c2O[C@H](CN(C)C(=O)Nc2ccccc2)[C@H](C)CN([C@H](C)CO)C3=O)cc1	0.028	2.5	-6	13
Cc1ccc(S(=O)(=O)N(C)C[C@H]2Oc3ccc(NC(=O)C4CC4)cc3C(=O)N([C@@H](C)CO)C[C@H]2C)cc1	-0.02	0.4	-6	22
Cc1noc(C)c1S(=O)(=O)N(C)C[C@H]1Oc2c(NC(=O)C3CCCCC3)cccc2C(=O)N([C@H](C)CO)C[C@H]1C	0.013	-0.7	-3	-73
O=C(CSc1nc2ccccc2o1)Nc1ccc(Br)cc1Cl	nt	2.2	-20	nt
C[C@@H]1CN([C@@H](C)CO)C(=O)Cc2cc(NC(=O)Nc3ccc4c(c3)OCO4)ccc2O[C@@H]1CN(C)S(=O)(=O)c1cccs1	-11	nt	18	0
Cc1noc(C)c1S(=O)(=O)Nc1ccc2c(c1)C(=O)N([C@H](C)CO)C[C@H](C)[C@@H](CN(C)S(=O)(=O)c1cccs1)OCCCC[C@@H](C)O2	-0.0043	nt	-15	12
COc1ccc(NC(=O)Nc2cccc3c2O[C@H](CN(C)C(=O)Nc2ccc(OC)cc2)[C@H](C)CN([C@H](C)CO)C3=O)cc1	-0.13	nt	-7	7
COc1ccc(-c2cc(C(F)(F)F)nc(SCc3cccc(C(=O)O)c3)n2)cc1	nt	0.3	-21	nt
C/C=C/c1ccc(OCCCN2C(=O)NC(C)(C)C2=O)c(OC)c1	nt	0.9	-44	nt
C[C@H]1CN([C@@H](C)CO)C(=O)c2cccc(NS(=O)(=O)c3ccc(Cl)cc3)c2O[C@@H]1CN(C)Cc1ccc(-c2ccccc2)cc1	-0.16	0.5	6	-22

Some entries already given, showing only MITF inh, PD-1 reverse act and YB-1 expression:
mol | MITF inh | PD-1 reverse act | YB-1 expression
COc1ccc(OC)c(NC(=O)COc2cc(C)cc(C)c2C)c1 | -6 | -2.6 | nt
COc1ccc(NC(=O)Nc2cccc3c2O[C@H](CN(C)C(=O)Nc2ccc(OC)cc2)[C@H](C)CN([C@H](C)CO)C3=O)cc1 | -7 | nt | -0.13

Further compounds follow:
SMILES	YB-1 expression	PD-1 reverse act	MITF inh	Shh pathway inh
C[C@H]1CN([C@@H](C)CO)C(=O)Cc2cc(NC(=O)C3CC3)ccc2O[C@H]1CN(C)C(=O)Nc1ccc(C(F)(F)F)cc1	-0.36	-0.6	-5	-17
Cc1noc(C)c1NC(=O)Nc1cccc2c1O[C@H](CN(C)C(=O)Nc1ccc3c(c1)OCO3)[C@@H](C)CN([C@@H](C)CO)C2=O	-0.63	nt	1	-16
C[C@H]1CN([C@@H](C)CO)C(=O)Cc2cc(NS(=O)(=O)c3cn(C)cn3)ccc2O[C@@H]1CN(C)S(=O)(=O)c1ccc(Cl)cc1	0.045	0.3	5	nt
COc1ccc(S(=O)(=O)N(C)C[C@H]2Oc3c(cccc3N(C)C)C(=O)N([C@H](C)CO)C[C@@H]2C)cc1	-1.2	0.5	3	18
Cc1csc2sc(-c3ccnc(SCC(=O)c4ccccc4)n3)c(C)c12	0.17	0.0	-24	70*
C[C@@H]1CN([C@@H](C)CO)C(=O)c2cccc(NS(=O)(=O)c3cccs3)c2O[C@H]1CN(C)S(=O)(=O)c1cn(C)cn1	-0.59	1.2	12	-31
Cc1cc(C(=O)Nc2cccc3c2O[C@@H](CN(C)Cc2ccc(C(=O)O)cc2)[C@H](C)CN([C@H](C)CO)C3=O)n(C)n1	0.22	1.9	0	-13
O=C(Oc1ccc2cc(OC(=O)c3ccccc3)ccc2c1)c1ccccc1	0.33	0.1	-19	nt
COc1ccc(Cl)cc1NC(=O)CN(c1ccc(I)cc1)S(C)(=O)=O	nt	-0.3	26	nt
Cc1cc(C)c(C)c(S(=O)(=O)NCc2cccnc2)c1C	nt	-1.4	-6	nt
CC1(C)CCc2cc(-c3ccn(S(=O)(=O)c4ccc(Cl)cc4)n3)ccc2O1	-0.34	-0.7	14	26
C[C@@H]1CCCCO[C@@H](CN(C)Cc2ccc(C(=O)O)cc2)[C@@H](C)CN([C@H](C)CO)C(=O)c2cc(NC(=O)Nc3cccc4ccccc34)ccc2O1	-1.1	-1.3	-3	nt
C[C@@H]1CN([C@@H](C)CO)C(=O)Cc2cc(NS(=O)(=O)c3cn(C)cn3)ccc2O[C@@H]1CN(C)C(=O)Nc1ccccc1	0.062	1.4	-2	-33
C[C@H]1CN([C@@H](C)CO)C(=O)c2cc(NC(=O)C3CC3)ccc2O[C@@H]1CN(C)S(C)(=O)=O	-0.013	-0.9	6	9
C[C@@H]1CCCCO[C@H](CN(C)CC2CCCCC2)[C@@H](C)CN([C@H](C)CO)C(=O)c2cc(NC(=O)CCCN(C)C)ccc2O1	0.09	nt	-14	-20
Cc1noc(C)c1NC(=O)Nc1cccc2c1O[C@@H](CN(C)Cc1ccccc1)[C@@H](C)CN([C@@H](C)CO)C2=O	0.51	-0.9	3	-44
C[C@@H]1CN([C@@H](C)CO)C(=O)c2cc(NC(=O)Cc3ccccc3)ccc2O[C@H]1CN(C)Cc1ccccc1	-0.12	1.0	-6	nt
COc1cccc(NC(=O)c2ccc(OC(=S)N3CCC(C)CC3)cc2)c1	0.24	0.9	22	nt
COc1ccc(S(=O)(=O)N(C)C[C@H]2Oc3c(NC(=O)Nc4cccc5ccccc45)cccc3C(=O)N([C@H](C)CO)C[C@@H]2C)cc1	0.23	-1.0	-6	34
Cc1cc(C)nc(SC(C)C(=O)Nc2cccc(Cl)c2)n1 (configuration not stated)	nt	-3.3	-4	nt
CSc1sc(/C(C)=N\O)c2c1/C(=N\O)CC(C)(C)C2	-0.65	-1.5	5	nt
CC1CCc2c(sc3ncnc(SCC(=O)Nc4cccc(Cl)c4Cl)c23)C1 (configuration not stated)	nt	0.2	-13	nt
CCOc1c(S(=O)(=O)NCc2ccccn2)ccc(Cl)c1Cl	nt	-0.1	9	nt
C[C@H]1CN([C@@H](C)CO)C(=O)c2cc(NC(=O)CCN3CCOCC3)ccc2O[C@@H]1CN(C)C	0.32	1.5	-11	-11
C[C@H]1CN([C@@H](C)CO)C(=O)Cc2cc(NC(=O)C3CC3)ccc2O[C@@H]1CN(C)Cc1ccncc1	-0.086	0.3	0	nt
COc1ccc(CN(C)C[C@@H]2Oc3c(NC(=O)Nc4ccc(OC)cc4)cccc3C(=O)N([C@@H](C)CO)C[C@@H]2C)cc1	-0.027	1.0	-13	-62
Cc1noc(C)c1NC(=O)N(C)C[C@@H]1Oc2c(NS(=O)(=O)c3ccccc3)cccc2C(=O)N([C@@H](C)CO)C[C@@H]1C	0.041	2.3	-1	-18
Cc1cc(C(F)F)n2nc(C(=O)Nc3cnn(Cc4ccc(Cl)cc4Cl)c3)nc2n1	nt	1.8	3	nt
CCOC(=O)CC1Sc2ccccc2N=C1SCC(=O)Nc1ccc(Cl)cc1Cl (configuration not stated)	0.26	-0.9	-15	13
C[C@@H]1CN([C@@H](C)CO)C(=O)c2cccc(NC(=O)c3cnccn3)c2O[C@@H]1CN(C)S(=O)(=O)c1cn(C)cn1	0.021	1.1	0	22
COc1ccc(N(CC(=O)Nc2c(C)cc(C)cc2C)S(C)(=O)=O)cc1Cl	nt	1.9	8	nt
C[C@H]1CN([C@@H](C)CO)C(=O)Cc2cc(NC(=O)Cn3cnnn3)ccc2O[C@H]1CN(C)Cc1ccc(Cl)c(Cl)c1	-0.54	1.1	-3	7
CC1(C)Cc2nc3sc4c(SCC(=O)NCc5ccco5)ncnc4c3cc2CO1	nt	-5.9	-10	nt
C[C@@H]1CN([C@@H](C)CO)C(=O)c2cccc(N(C)C)c2O[C@@H]1CN(C)Cc1ccc(C(=O)Nc2ccccc2N)cc1	0.16	-1.8	12	nt
C[C@@H]1CN([C@H](C)CO)C(=O)c2cccc(NC(=O)c3ccncc3)c2O[C@H]1CN(C)C(=O)Nc1ccc2c(c1)OCO2	-0.21	1.3	3	-2
Cc1cc(C)c(S(=O)(=O)N(C)CC(=O)Nc2cccc([N+](=O)[O-])c2)c(C)c1	nt	-0.9	-18	nt
O=C(O)CCn1cc(C(F)(F)F)ccc1=O	-0.052	-0.1	2	4
COc1cc(NC(=O)Cn2nc(C(F)(F)F)c(Cl)c2C)cc(OC)c1OC	nt	1.1	-3	nt
C[C@H](CO)N1C[C@H](C)[C@@H](CN(C)CC2CC2)Oc2ccc(NS(=O)(=O)c3cn(C)cn3)cc2C1=O	0.3	2.4	-4	-21
COc1ccc(NC(=O)CNC(=O)c2ccccc2)cc1Cl	nt	-0.4	-50	nt

4 entries already listed, ordered by number of heavy atoms, smallest number first.
SMILES	YB-1 expression	PD-1 reverse act	MITF inh	Shh pathway inh
CCOc1c(S(=O)(=O)NCc2ccccn2)ccc(Cl)c1Cl	nt	-0.1	9	nt
COc1cc(NC(=O)Cn2nc(C(F)(F)F)c(Cl)c2C)cc(OC)c1OC	nt	1.1	-3	nt
C[C@H]1CN([C@@H](C)CO)C(=O)c2cc(NC(=O)CCN3CCOCC3)ccc2O[C@@H]1CN(C)C	0.32	1.5	-11	-11
C[C@H]1CN([C@@H](C)CO)C(=O)Cc2cc(NC(=O)C3CC3)ccc2O[C@@H]1CN(C)Cc1ccncc1	-0.086	0.3	0	nt

Whole records, looked up by structure. Values in the order: YB-1 expression	PD-1 reverse act	MITF inh	Shh pathway inh
Listed for C[C@@H]1CN([C@@H](C)CO)C(=O)c2cccc(N(C)C)c2O[C@@H]1CN(C)Cc1ccc(C(=O)Nc2ccccc2N)cc1 → 0.16	-1.8	12	nt
Listed for C[C@@H]1CN([C@@H](C)CO)C(=O)c2cccc(NC(=O)c3cnccn3)c2O[C@@H]1CN(C)S(=O)(=O)c1cn(C)cn1 → 0.021	1.1	0	22

Other structures follow.
SMILES	YB-1 expression	PD-1 reverse act	MITF inh	Shh pathway inh
Cc1ccnc(N)c1	-0.35	0.9	-2	-14
C[C@@H]1CN([C@H](C)CO)C(=O)Cc2cc(NC(=O)NC3CCCCC3)ccc2O[C@H]1CN(C)Cc1ccc(Oc2ccccc2)cc1	0.23	-2.7	45	38
Cc1ccc(S(=O)(=O)N(C)C[C@H]2Oc3c(NS(=O)(=O)c4cccs4)cccc3C(=O)N([C@H](C)CO)C[C@H]2C)cc1	-0.0091	0.3	-6	29
Cc1cc(CNC(=S)Nc2ccc(S(N)(=O)=O)cc2)nn1C	nt	0.8	-3	nt
COc1ccc(Cl)cc1NC(=O)CSc1nnc(-c2ccc(Br)cc2)o1	nt	-0.1	-5	nt
COc1ccc(N(C(C)C(=O)Nc2ccc(Br)cc2)S(C)(=O)=O)cc1 (configuration not stated)	nt	0.8	20	nt
C[C@H](CO)N1C[C@H](C)[C@H](CN(C)C(=O)NC2CCCCC2)Oc2ccc(NC(=O)Nc3ccc(C(F)(F)F)cc3)cc2C1=O	0.24	-3.7	64	20
C[C@H](CO)N1C[C@H](C)[C@H](CN(C)S(=O)(=O)c2ccc(Cl)cc2)Oc2c(NS(=O)(=O)c3ccc(Cl)cc3)cccc2C1=O	0.12	-2.3	22	-27
O=C(NCCOc1ccccc1-c1ccccc1)c1ccco1	-0.023	-2.4	7	0
C[C@H](CO)N1C[C@H](C)[C@@H](CN(C)Cc2ccncc2)Oc2c(NC(=O)c3cnccn3)cccc2C1=O	0.082	nt	-11	70*
Cc1cc(C(=O)Nc2cccc3c2O[C@H](CN(C)Cc2ccc(Cl)c(Cl)c2)[C@@H](C)CN([C@@H](C)CO)C3=O)n(C)n1	0.081	nt	-14	-39
C[C@@H]1CN([C@@H](C)CO)C(=O)Cc2cc(NS(=O)(=O)c3ccc(F)cc3)ccc2O[C@@H]1CN(C)Cc1ccccc1	0.27	-2.1	-11	6
